Rango dissoc inh: inhibition of RanGTP-driven Rango-importin beta dissociation | Biochemical FRET Rango-importin beta, RanGTP-induced dissociation | actives 0.071% (n = 340,000) | O95149+P62826 | Potency, µM (doses to about 46.1 µM), for the others: top-dose activity change, negative = inhibition; active means falling FRET ratio curve, often poorly fitted, with flat reads before Ran was added; inconclusive means other falling curves, or compound fluorescence or quenching; inactive means flat or rising ratio curve;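 further: potency means the concentration at half of the fitted maximal effect; % of control where 0% means no effect; nearly all actives have a fitted effect of over 45% in size; -100% = wells without RanGTP and RCC1; the record marks most hits as doubtful in a second field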
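Rango (0.1 uM)–importin beta (0.25 uM) complex; RanGTP-RCC1 trigger; 45 min RT; CFP/YFP FRET read.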
miR-21 FLuc: miR-21 reporter, rising signal | HeLa miR-21 FLuc reporter, luciferase, 48 h | 340,000 tested, under 10 active | AID 2288 | Potency, µM (titrated, usually from 38.3 µM), inactives show top-dose reporter change, positive = more light; active = well fitted rising curve with a large enough effect; inconclusive = small, poorly fitted or top-dose-only effect; inactive = no such curve, though single readings can be large or run the other way;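 further: % of control where 0% means no effect; miR-21 action dims this reporter so a rising signal means less miR-21 action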
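Compounds were titrated across several concentrations (up to approximately 40 uM) and incubated 48 hours with HeLa miR-21-FLuc reporter cells (miR-21 target sequence downstream of FLuc, endogenous miR-21). Readout was firefly luciferase luminescence after lytic detection reagent.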
GLA inh pH 4.5: inhibitors of human alpha-galactosidase A at pH 4.5. P06280. purified enzyme, 4-MU-alpha-Gal fluorescence, pH 4.5. activity change, negative = inhibition, % at 105 µM. 230,000 tested, under 10 active. AID 1467; inconclusive = small, poorly fitted or top-dose-only inhibition, or a rising curve; inactive = flat fitted curve, though single readings scatter; no compound was filed as active;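 further: 0% = full activity with enzyme and -100% = basal without enzyme; dose as in the result columns while the protocol names 77 µM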
Target sequence (P06280 whole entry, looked up): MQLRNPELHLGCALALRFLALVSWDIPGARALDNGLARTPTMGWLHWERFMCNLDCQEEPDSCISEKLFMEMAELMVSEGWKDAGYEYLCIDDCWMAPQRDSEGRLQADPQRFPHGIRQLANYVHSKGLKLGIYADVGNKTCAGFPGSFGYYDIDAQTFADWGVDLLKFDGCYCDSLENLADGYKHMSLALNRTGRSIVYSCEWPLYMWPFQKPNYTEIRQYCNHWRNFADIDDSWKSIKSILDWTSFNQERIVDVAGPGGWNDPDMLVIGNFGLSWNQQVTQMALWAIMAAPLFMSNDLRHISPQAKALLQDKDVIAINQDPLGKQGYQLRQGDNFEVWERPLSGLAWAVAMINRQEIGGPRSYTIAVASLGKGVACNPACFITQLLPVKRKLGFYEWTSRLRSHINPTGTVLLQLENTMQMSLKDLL
Rango complex inh: prevents formation of the Rango-importin beta complex; actives 0.031% (n = 340,000); Q14974; Rango CFP/YFP FRET sensor + importin beta, 45 min; Potency, µM (doses to about 92.2 µM), for inactives: at the highest dose inhibition of complex formation; active = rising FRET ratio curve, often small or poorly fitted; inconclusive = mostly compound fluorescence or quenching in the first reads; inactive = flat curves in all reads;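 further: potency means the concentration at half of the fitted maximal effect; 0% = DMSO wells and 100% = buffer wells lacking importin beta; nearly all actives have a fitted effect of over 15% in size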
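FRET biosensor Rango (snurportin 1 IBB between N-terminal EYFP and C-terminal Cerulean), 50 nM in PBS/1 mM DTT/0.02% Tween-20/0.1% BSA, preincubated 5 min RT with compound; 0.125 microM importin beta added, 45 min RT, CFP/YFP FRET ratio read.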
An asterisk follows results filed as active; ? = inconclusive; . = no result given; & = joins results of further samples.

cpd | Rango dissoc inh | miR-21 FLuc | GLA inh pH 4.5 | Rango complex inh | Structure
1 | 3% | . | . | 7.1% | CC(C)CC1NC(=O)N(CC(=O)Nc2ccc(OC(F)F)cc2)C1=O (configuration not stated)
2 | 10% | . | . | 4.8% | CC1(C)c2ccccc2-c2nc3ccccc3cc2C1N1CCOCC1 (configuration not stated)
3 | -22% | 0% | -7 | ? | Cc1cc(C)c2c(N)c(C(=O)c3ccc(Cl)c(Cl)c3)sc2n1
4 | -10% | 5% | 7 | ? | Cc1nc(N)c(Cc2ccc(Cl)cc2Cl)c(N)n1
5 | -14% | . | . | 0.2% | CCN(C[C@H]1N[C@@](C)(C(=O)OC)[C@H]2C(=O)N(Cc3ccccc3)C(=O)[C@@H]12)C(=O)c1ccc(C)cc1
6 | -10% | 3% | . | -1.2% | N#CC[C@H](Cc1ccccc1)N1CC[C@@H](O)CCC1=O
7 | -7% | . | . | -4.6% | O=C(COc1ncnc2ccccc12)NC1CCCCC1
8 | 2% | -3% | 10 | 0.5% | CC(=O)Nc1ncc(Cc2cccc(Cl)c2Cl)s1
9 | -8% | 0% | . | -0.2% | O=C(O)C1CCCN1S(=O)(=O)c1cccc(S(=O)(=O)N2CCCC2C(=O)O)c1 (configuration not stated)
10 | 14% | -5% | 4 | 7.4% | CN(CC(=O)Nc1ccccc1C(F)(F)F)C(=O)COc1ncnc2ccccc12
11 | -1% | . | . | -0.1% | COC(=O)[C@H](CC(C)C)NS(=O)(=O)N(Cc1ccccc1)[C@@H](CC(C)C)C(=O)OC
12 | -26% | -17% | . | -2.4% | CCOc1ccc(-c2cnc3n2CCCCC3)cc1
13 | -2% | -19% | . | -0.6% | CC(=O)c1cc(F)ccc1OCC(=O)N1CCCc2ccccc21
14 | ? | 14% | -4 | ? | NS(=O)(=O)c1ccc(NC(=O)COC(=O)c2c3c(nc4ccccc24)/C(=C\c2ccc4c(c2)OCO4)CCC3)cc1
15 | 5% | -2% | . | 1.1% | COCCCN1C(=O)C(=O)/C(=C(/O)c2ccc(S(=O)(=O)N3CCCCC3)cc2)C1c1cccc(OC)c1 (configuration not stated)
16 | -2% | . | . | 1.2% | Cc1cc(C)cc(OCC(=O)OCC(=O)Nc2cc(S(=O)(=O)N3CCOCC3)ccc2Cl)c1
17 | -3% | 1% | . | 0.2% | Cc1ccc(C(=O)COC(=O)CCN2C(=O)C3C4C=CC(C5CC45)C3C2=O)cc1 (configuration not stated)
18 | -1% | -4% | 8 | -3.4% | Cc1cc(C(=O)Nc2ccc3c(c2)CCC3)c2ccccc2n1
19 | 11% | -1% | -11 | 1.5% | Cc1ccc(C(=O)NCCc2ccc(S(=O)(=O)N3CCCC3)cc2)cc1
20 | ? | -8% | 5 | ? | C=CCOn1c(=O)c(-c2cccs2)[n+]([O-])c2ccccc21
21 | -18% | -59% | -23 | -3.6% | O=C(O)c1ccc(-c2nc(-c3ccc(Cl)cc3)cs2)cc1
22 | 0% | 4% | . | 1.0% | O=C(CN(CC1CCCO1)C(=O)CNS(=O)(=O)c1ccc(F)cc1)NCc1ccc(F)cc1 (configuration not stated)
23 | -6% | 7% | 13 | -2.2% | CCn1c(C2CCN(S(=O)(=O)c3ccc(OC)cc3)CC2)n[nH]c1=S
24 | ? | -6% | 2 | ? | C=CCN=C1SCC(=O)N1S(=O)(=O)c1ccc(C)cc1
25 | 2% | 18% | -13 | 0.3% | COc1ccc(-c2ccnc(-c3ccc(OCCCF)cc3)n2)cc1
26 | -13% | 1% | . | 0.8% | O=C(c1ccncc1)N1CCc2ccccc2C1
27 | -1% | -3% | -11 | -1.4% | CCCCNC(=O)Oc1cccc(N2CCCC2=O)c1
28 | 4% | 3% | . | ? | O=C(c1ccc(F)c(S(=O)(=O)N2CCOCC2)c1)N1CCc2ccccc21
29 | 13% | . | . | -1.7% | CS(=O)(=O)c1ccc(Cl)c(NC(=O)CCCc2nc3ccccc3c(=O)[nH]2)c1
30 | -6% | 5% | 3 | -0.8% | C=C(C)CNC(=S)Nc1cccc2cnccc12

More records follow:
cpd | Rango dissoc inh | miR-21 FLuc | GLA inh pH 4.5 | Rango complex inh | Structure
31 | -10% | -6% | . | -0.8% | Cc1cccc(C)c1OCCn1nnc2ccccc21
32 | 1% | -39% | . | -4.1% | O=C(NNC(=O)c1cccs1)c1ccc(Br)cc1
33 | 0% | 5% | -2 | 2.9% | CC(=O)NCCn1c(SCc2ccc(C)cc2)nc2ccccc2c1=O
34 | -3% | -7% | 3 | -1.7% | Nn1c(Cc2ccccc2F)n[nH]c1=S
35 | -7% | -14% | 10 | 1.9% | Cc1ccc(-c2nn(-c3ccccc3)cc2C(=O)N2CCOCC2)cc1
36 | 0% | -4% | -6 | ? | O=C(CSc1nnc(Cc2cc(=O)[nH]c(=O)[nH]2)n1-c1ccc(Cl)cc1)NC1CCCC1
37 | 3% | 9% | . | 2.3% | CCn1cc(C(=O)O)c(=O)c2cnc(N3CCN(C(=S)NC(=O)c4ccc(Cl)cc4Cl)CC3)nc21
38 | -6% | -4% | 7 | -6.4% | CCCCSc1nc(C)cc(NC(=S)Nc2ccc(OC)cc2)n1
39 | -19% | -11% | -10 | -2.0% | COc1ccc(C2C(C(=O)c3ccc(C)o3)=C(O)C(=O)N2c2cc(C)on2)cc1OC (configuration not stated)
40 | 5% | -24% | . | 0.1% | COc1cccc(-c2noc(C3CCCN(C(=O)c4ccc(F)cc4)C3)n2)c1 (configuration not stated)
41 | -16% | -7% | 0 | -1.3% | CCCCN1C2CCCC1CC(NC(=O)C1CCCCC1)C2 (configuration not stated)
42 | 10% | 0% | 1 | 3.7% | COc1ccc(CN(Cc2cc3cc(C)ccc3[nH]c2=O)C(=O)N(C)C)cc1
43 | 17% | 6% | -21 | 1.9% | Cc1cc(C)n(-c2ccc(C(=O)Nc3cccc([N+](=O)[O-])c3)cc2)n1
44 | -14% | 0% | -1 | 2.7% | C=CCNC(=O)COc1cc(C)ccc1C
45 | 31% | 4%&3% | -2 | ? | CCOc1ccccc1NC(=O)C1CCCN(S(=O)(=O)c2c(C)[nH]c(=O)[nH]c2=O)C1 (configuration not stated)
46 | 12% | -2% | . | 1.3% | COc1ccc(NC2CCCN(C(=O)CCn3cccn3)C2)cc1 (configuration not stated)
47 | -1% | -25% | . | ? | COc1ccc(-c2nc3ncccc3n2O)cc1
48 | 7% | -26% | -6 | 0.2% | COc1cccc(C(=O)Nc2ccc(C3CC3(Cl)Cl)cc2)c1 (configuration not stated)
49 | 0% | -18% | -3 | 1.0% | O=C(Oc1cccc(NC(=O)c2ccco2)c1)c1cccc(S(=O)(=O)N2CCCC2)c1
50 | -11% | 0% | -1 | -3.0% | O=C(NNS(=O)(=O)c1ccc(Cl)cc1)C1CCN(Cc2ccccc2)CC1
51 | 5% | 3% | . | 1.2% | COc1ccc(O)c(CN2CCCC(C(=O)Nc3cccc(-n4cccn4)c3)C2)c1 (configuration not stated)
52 | 0% | 0% | -2 | 0.3% | FC(F)(F)c1nnc(-c2ccccc2)nc1Oc1ccccc1
53 | 1% | . | . | -1.5% | Cc1cccc(C(=O)OCC(=O)c2c(C)[nH]c3ccccc23)c1O
54 | -1% | . | . | ? | Oc1cccc(CN2CCOCC2)c1O
55 | -1% | -6% | 1 | 0.8% | COc1ccc(C(=O)N2c3ccc(F)cc3CCC2C)cc1OC (configuration not stated)
56 | -12% | -2% | 3 | 3.6% | S=C(NCCCN1CCOCC1)N1CCN(c2nc(-c3ccc(Cl)cc3)cs2)CC1
57 | -16% | -18% | 6 | 1.6% | COc1ccc(-c2[nH]nc3oc(=O)cc(C)c23)cc1
58 | -5% | -10% | 10 | -3.2% | Cc1ccsc1/C=C(\C#N)C(=O)Nc1c(C)n(C)n(-c2ccccc2)c1=O
59 | 0% | -4% | 7 | -0.1% | CCOC(=O)NCc1ccc2c(c1)OCO2
60 | -1% | -19% | -13 | -1.3% | Cn1c(=O)c2c(n(Cc3ccccc3)c1=O)NC(=O)C2CC(=O)N1CCc2ccccc2C1 (configuration not stated)

3 entries from above, with each value named.
52	FC(F)(F)c1nnc(-c2ccccc2)nc1Oc1ccccc1
  Rango dissoc inh: 0%	miR-21 FLuc: 0%	GLA inh pH 4.5: -2	Rango complex inh: 0.3%
53	Cc1cccc(C(=O)OCC(=O)c2c(C)[nH]c3ccccc23)c1O
  Rango dissoc inh: 1%	miR-21 FLuc: .	GLA inh pH 4.5: .	Rango complex inh: -1.5%
54	Oc1cccc(CN2CCOCC2)c1O
  Rango dissoc inh: -1%	miR-21 FLuc: .	GLA inh pH 4.5: .	Rango complex inh: ?

Three compounds already listed, arranged by number of heavy atoms, descending:
cpd | Rango dissoc inh | miR-21 FLuc | GLA inh pH 4.5 | Rango complex inh | Structure
11 | -1% | . | . | -0.1% | COC(=O)[C@H](CC(C)C)NS(=O)(=O)N(Cc1ccccc1)[C@@H](CC(C)C)C(=O)OC
25 | 2% | 18% | -13 | 0.3% | COc1ccc(-c2ccnc(-c3ccc(OCCCF)cc3)n2)cc1
38 | -6% | -4% | 7 | -6.4% | CCCCSc1nc(C)cc(NC(=S)Nc2ccc(OC)cc2)n1

Returning to the listing, repeating the 3 entries before the break.
cpd | Rango dissoc inh | miR-21 FLuc | GLA inh pH 4.5 | Rango complex inh | Structure
58 | -5% | -10% | 10 | -3.2% | Cc1ccsc1/C=C(\C#N)C(=O)Nc1c(C)n(C)n(-c2ccccc2)c1=O
59 | 0% | -4% | 7 | -0.1% | CCOC(=O)NCc1ccc2c(c1)OCO2
60 | -1% | -19% | -13 | -1.3% | Cn1c(=O)c2c(n(Cc3ccccc3)c1=O)NC(=O)C2CC(=O)N1CCc2ccccc2C1 (configuration not stated)
61 | -19% | -64% | 5 | 1.4% | N/C(=N\OC(=O)COc1ccccc1)c1ccccn1
62 | -9% | -6% | -4 | -1.9% | Cc1cc2c(c(=O)n1CCN(C)C)C(c1ccc(Cl)cc1)C(C#N)=C(N)O2 (configuration not stated)
63 | 10% | -6% | -18 | 3.1% | O=C(NCc1ccccn1)NC1CCCCC1
64 | -13% | -27% | -27 | 1.2% | CCc1ccc(NC(=O)Cc2cn(C)c3ccccc23)cc1
65 | -16% | -8% | 1 | -3.6% | Clc1ccc(CNc2cnccn2)cc1
66 | -7% | -2% | -6 | -1.6% | COc1ccccc1NCCC(=O)OCC(=O)NCc1ccco1
67 | 9% | -42% | 9 | 0.0% | COCCNc1c(-c2ccc(OC)cc2)nc2ccc(Cl)cn12
68 | ? | -34% | -6 | 3.8% | CN1/C(=C\C(=O)c2cccs2)C(C)(C)c2ccccc21
69 | 27% | -7% | -2 | 0.3% | Cc1nc2c(c(C)c1C#N)C(=O)c1ccccc1-2
70 | -8% | -7% | -3 | 2.7% | CCOc1ccccc1NC(=O)CSc1c(C)n[nH]c1C
71 | 13% | -7% | -2 | -0.7% | CCCCn1c(SCc2ccccn2)nc2c1c(=O)n(C)c(=O)n2C
72 | -10% | -6% | -18 | 1.2% | Cc1ccccc1NC(=S)N(CCCN1CCC(C)CC1)Cc1ccco1
73 | . | 6% | -6 | . | COc1ccc(CCn2c(-c3ccco3)nc3nc4ccccc4nc32)cc1OC
74 | 0% | -10% | 2 | 1.0% | Cc1c(NC(=O)c2ccc(N3CCCC3)c([N+](=O)[O-])c2)cccc1-c1nc2ccccc2s1
75 | 15% | -2% | -9 | -0.4% | CCOc1ccc(/C=N/n2c(C)nnc2C)cc1OC
76 | -32% | -3% | 0 | ? | CC1(C)CC(=O)C2=C(C1)N(c1ccccc1)C(N)=C(C#N)C2c1ccccc1 (configuration not stated)
77 | 8% | -1% | 1 | 0.3% | CC(=O)c1cccc(NS(=O)(=O)c2c(C)n[nH]c2C)c1
78 | -28% | . | . | -2.3% | CCOC(=O)N1C2CCC(C2)N1C(=O)OCC
79 | -5% | -3% | 0 | 0.4% | O=C(/C=C/Sc1ccc(C(F)(F)F)cn1)c1ccccc1
80 | 0% | -3% | 1 | -4.4% | CCCc1nn(CCc2ccccn2)c(N)c1CC
81 | 0% | 5% | -1 | -8.0% | CN1C(=O)C2(C(C#N)=C(N)N(c3ccc(Cl)cc3)C3=C2C(=O)CC(C)(C)C3)c2ccccc21 (configuration not stated)
82 | . | -17% | -6 | . | Cc1cc([N+](=O)[O-])c2c(c1C)C1C=CCC1C(c1ccccn1)N2 (configuration not stated)
83 | 1% | -8% | 2 | -3.1% | COc1cccc(COc2ncnc3sccc23)c1
84 | 1% | 28% | -2 | -0.4% | Cc1[nH]n(-c2ccccc2)c(=O)c1C(=O)c1ccccc1

This is a subset; count on the stated rates, not on these rows.
